# High-throughput results (PubChem)
# miR-21 FLuc: miR-21 reporter, rising signal; 340,000 tested, under 10 active; Potency, µM (series often up to 38.3 µM), for the others: at the highest dose reporter change, positive = more light; HeLa miR-21 FLuc reporter, luciferase, 48 h; active = well fitted rising curve with a large enough effect; inconclusive = small, poorly fitted or top-dose-only effect; inactive = no such curve, though single readings can be large or run the other way;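 further: % of control where 0% means no effect; miR-21 action dims this reporter so a rising signal means less miR-21 action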
#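 HeLa cells stably expressing CMV-driven firefly luciferase with a downstream miR-21 binding sequence, endogenously expressing miR-21, were treated with titrations (up to about 40uM final) for 48 hours at 37 degree Celsius. Luciferase luminescence was read after lysis.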
# Active calls of the source: *; ? = inconclusive.
No.	SMILES	miR-21 FLuc
1	CCOC(=O)c1c(C)c(-c2ccccc2)n(CC(=O)Nc2cccc(C)c2C)c1C	-1%
2	COc1ccc(OC)c(CNC(=O)c2ccc(-c3nc(CSc4ccccc4)c(C)o3)cc2)c1	4%
3	COc1ccc(-c2cc(-c3nc(-c4cc(OC)c(OC)c(OC)c4)no3)[nH]n2)c(OC)c1	11%
4	O=C(Nc1cccc(Cl)c1)c1cc(S(=O)(=O)N2CCCc3ccccc32)ccc1F	12%
5	O=C(CCS(=O)(=O)c1cccc2nonc12)Nc1c(F)cccc1F	5%
6	O=C(NCc1ccco1)c1ccc2c(c1)N(Cc1ccc(Cl)cc1)C(=O)c1ccccc1S2=O (stereo not drawn)	11%
7	COc1ccc(S(=O)(=O)Nc2ccc3oc4c(c3c2)C(=O)CC(C)(C)C4)cc1	18%
8	CCOc1ccc(NC(=O)N2CCC(CN3CCc4ccccc4C3)CC2)cc1	-2%
9	CCCC(=O)Nc1cc(-c2nc3cccnc3s2)ccc1C	29%
10	COC(=O)c1ccc(Cn2c(SCC(=O)N(C)c3ccccc3)nc3ccccc32)cc1	-2%
11	CCOC(=O)c1cc(-c2ccc(F)cc2)n(CCC(=O)NC2CCCCC2)c1C	6%
12	COc1ccc2c(c1)c1c(c(=O)n(-c3cc(Cl)ccc3C)c(=O)n1Cc1ccc(F)cc1)n2C	0%
13	CCCC12CN3CC(CCC)(CN(C1)C3c1c(C)[nH]c(=O)[nH]c1=O)C2=O (stereo not drawn)	7%
14	CC1=C(C(=O)Nc2cccc(C(F)(F)F)c2)C2(CCN(C(C)C)CC2)OC1=O	-4%
15	Cc1c(C(=O)NC(C)c2ccccc2)sc2ncnc(N(C)C3CCCCC3)c12 (stereo not drawn)	18%

# Next records:
No.	SMILES	miR-21 FLuc
16	COc1ccc(NC(=O)Cn2cnc3ccc(S(=O)(=O)N4CCC(C)CC4)cc3c2=O)cc1Cl	-9%
17	Cn1ccc2cc(S(=O)(=O)N3CCCN(C(=O)Nc4ccc(Br)cc4)CC3)ccc21	0%
18	CC(=O)N1CCCc2cc(S(=O)(=O)N3CCC(N(C)C(C)C)CC3)ccc21	1%
19	Cc1ccc(CNC(=O)c2cc3sc(Cl)cc3n2C)cc1	10%
20	Cc1noc(NS(=O)(=O)c2ccc(NC(=O)COc3ccccc3Br)cc2)c1C	26%
21	CCOC(=O)Cn1c(=O)n(CC2CCCO2)c2nc(-c3ccc(OCC)cc3)nc(C(N)=O)c21 (stereo not drawn)	-2%
22	Cc1cccc(N(C)C(=O)CS(=O)(=O)c2cccc3nsnc23)c1	1%
23	Cc1ccc(C)c(CN2C(=O)C(=O)c3ccccc32)c1	11%
24	COc1ccc(CNC(=O)c2cc3c(-c4ccc(Cl)cc4)nn(C)c3s2)cc1	7%
25	O=C(NCc1cccc(F)c1)C1CCN(c2nn3cc(-c4ccc(F)cc4)nc3s2)CC1	-47%
26	CCOC(=O)C1CCN(C(c2ccccc2OC)c2c(O)cc(C)n(CCOC)c2=O)CC1 (stereo not drawn)	-2%
27	COc1cccc(NS(=O)(=O)c2ccc3[nH]c4c(c3c2)CCCCCC4)c1	8%
28	CCOc1ccccc1Nc1sc(C(=O)c2ccccc2)c(N)c1S(=O)(=O)c1ccc(C)cc1	14%
29	O=C(NCc1ccc(F)cc1)c1ccc2oc(=O)n(Cc3ccccc3)c2c1	9%
30	CCN(C(=O)CSc1nc2ccccc2n1CC(=O)N(C)C1CCCCC1)c1ccccc1	-7%

# More structures follow.
No.	SMILES	miR-21 FLuc
31	COc1cccc(N2CC(NC(=O)c3ccc(S(=O)(=O)N4CCCCC4)cc3)CC2=O)c1 (stereo not drawn)	4%
32	COCCn1c(SCC(=O)c2c[nH]c3ccccc23)nc2cc(C(=O)NC(C)C)ccc2c1=O	4%
33	CCCCS(=O)(=O)CC(O)CSc1nc(-c2ccc(C)cc2)cc(-c2ccccc2)c1C#N (stereo not drawn)	16%
34	COCCCNC(=O)c1ccc(-c2nc(CS(=O)(=O)c3ccc(C)cc3)c(C)o2)cc1	13%
35	COc1ccccc1CNC(=O)C1CCN(C2=NS(=O)(=O)C(c3ccc(C)c(C)c3)=C2C)CC1	12%
36	COc1ccc2c(c1)c1c(c(=O)n(-c3ccc(C)cc3)c(=O)n1CC(=O)NCc1ccc(C)cc1)n2C	-1%
37	O=C(NC1CCCCCC1)C1CCN(C(=O)N2CCOc3ccc(Cl)cc32)CC1	-50%
38	Cn1c(=O)n(C)c2cc(NS(=O)(=O)c3ccc(Br)cc3)c(NCc3ccccc3)cc21	-29%
39	CCOC(=O)CSc1nc(-c2ccc(Cl)cc2)cc(C(F)(F)F)c1C#N	-1%
40	CC(C)OCCCNC(=O)C(=O)Nc1c2c(nn1-c1ccccc1)CS(=O)(=O)C2	-2%
41	Cc1ccc(Cl)cc1NC(=O)c1sc2nc(-c3ccccc3)cn2c1C	-16%
42	Cc1ccc(NC(=O)Nc2csc3c2CCCC3)c(C)c1	-3%
43	COCCCNC(=O)C1CCN(C(=O)c2ccc(-n3ccc4ccccc43)s2)CC1	-36%
44	CCC(=O)N1CCc2cc(S(=O)(=O)NC(C(=O)NCCc3cccc(C)c3)C(C)C)ccc21 (stereo not drawn)	-5%
45	O=C(c1ccc(Nc2nc3ccccc3n3nnnc23)cc1)N1CCN(c2ccc(F)cc2)CC1	9%

# (continued)
No.	SMILES	miR-21 FLuc
46	COc1ccc(S(=O)(=O)c2cc3cc(OC)ccc3oc2=O)cc1	2%
47	Cc1cc(Cl)ccc1OCC(=O)Nc1c(C(=O)c2ccccc2)oc2ccccc12	2%
48	CCCCc1ccc(NS(=O)(=O)c2ccc(N3CCCCS3(=O)=O)cc2)cc1	3%
49	O=C(Cn1c(=O)nc(-c2ccccc2)c2cc(Cl)ccc21)NCc1ccccc1	8%
50	COCCN1C(=S)N[C@@H](c2ccccc2)C(C(=O)OC)=C1C	10%
51	Nc1nc(N)c(S(=O)(=O)c2ccccc2)c(Nc2ccccc2)n1	1%
52	COc1ccc(C(=O)/C=C/c2cn(CC(O)CN(CC(C)C)CC(C)C)c3ccccc23)cc1OC (stereo not drawn)	-1%
53	COc1ccc(CNC(=O)C2CCC(CNS(=O)(=O)c3ccc4c(c3)CCCC(=O)N4)CC2)cc1 (stereo not drawn)	3%
54	CCOC(=O)C1=C(CS(=O)(=O)c2ccc(F)cc2)NC(=O)NC1c1ccc(OCC)c(OC)c1 (stereo not drawn)	-1%
55	CCOC(=O)c1ccc(NC(=O)CSc2nc(C)c(Cc3ccccc3)c(=O)[nH]2)cc1	13%
56	CCOc1ccc(CCNC(=O)CCCc2nnc3n(CCCOC)c(=O)c4sccc4n23)cc1	0%
57	Cc1cccc(N2CCN(S(=O)(=O)c3csc(C(N)=O)c3)CC2)c1C	25%
58	COc1ccccc1-c1cc2nc(C)c(CCC(=O)NCCc3cccc(C)c3)c(C)n2n1	21%
59	Cc1ccc(Cn2c(C(=O)O)c(CNCCc3ccco3)c3ccc(C)cc32)cc1	4%
60	O=S(=O)(c1ccc(-c2cc(C(F)(F)F)on2)s1)N1CCN(c2ccc(F)cc2)CC1	5%

# Next part
No.	SMILES	miR-21 FLuc
61	CC(C)(C)c1ccc(S(=O)(=O)N2CCC(c3ccncc3)CC2)cc1	?
62	Cc1cc(C)cc(OCC(=O)Nc2nc3c(s2)CC(C(C)(C)C)CC3)c1 (stereo not drawn)	-3%
63	COc1ccc(CCNC(=O)Cc2c(C)c3cc4c(C(C)(C)C)coc4c(C)c3oc2=O)cc1	6%
64	Cc1ccc(C)c(CNC(=O)CCn2cccn2)c1	-8%
65	CCOC(=O)N1CCc2c(sc3c2C(=O)NC(c2ccc(C(=O)OC)cc2)N3)C1 (stereo not drawn)	-7%
66	CCOc1ccc(NC(=O)c2cc(C)nc3c2c(C)nn3-c2ccc(C)cc2)cc1	0%
67	CCC(Sc1nnc(-c2ccc(F)cc2)c(-c2ccc(F)cc2)n1)C(=O)NC1CCCC1 (stereo not drawn)	17%
68	O=C1CSC(=S)N1/N=C/c1cc(Br)ccc1O	-7%
69	COc1ccc(S(=O)(=O)c2c(O)c3ccc(C(=O)NCc4ccc(F)cc4)cc3[nH]c2=O)cc1	-4%
70	CCCCCn1cc2c(c1-c1ccccc1Br)c(=O)n(C)c(=O)n2C	-1%
71	CCCOc1ccc(C(=O)N(Cc2ccco2)Cc2ccco2)cc1	5%
72	Cc1cc(O)c(C(c2ccccc2Cl)N2CCN(c3ccccc3)CC2)c(=O)n1Cc1ccco1 (stereo not drawn)	-1%
73	Cc1ccc(-n2c(SCC(=O)Nc3ccc4c(c3)OCO4)nc3c([nH]c4ccccc43)c2=O)cc1	-15%
74	CCCCNC(=O)CCCn1c(=O)c2ccccc2n(Cc2c(C)cc(C)cc2C)c1=O	5%
75	CC(=O)Nc1nonc1-c1nnc(SCC(=O)Nc2ccccc2)n1-c1ccccc1	-3%

# More compounds:
No.	SMILES	miR-21 FLuc
76	Cc1ccc(-c2nc(CS(=O)CC(=O)N3CCN(c4cccc(Cl)c4)CC3)c(C)o2)cc1 (stereo not drawn)	?
77	Cc1ccc(-c2nnc(Nc3ccc(O)cc3)c3ccccc23)cc1S(=O)(=O)NC(C)(C)CO	-7%
78	CCCc1ccc(OCC(=O)Nc2sc3c(c2C(=O)OCC)CCC(C(C)(C)C)C3)cc1 (stereo not drawn)	0%
79	Cc1ccc2nc(Cl)c3cc(C(=O)NC4CCCCCC4)sc3c2c1	-1%
80	Cc1ccc(Sc2ccc(N3CCCC(C(=O)Nc4ccc(Br)cc4)C3)nn2)cc1 (stereo not drawn)	11%
81	COc1ccc(CNC(=O)Cn2c(-c3ccccc3)cc(C(C)=O)c2C)cc1OC	7%
82	CCCOc1ccc(C(=O)Nc2ccc3oc(-c4ccncc4)nc3c2)cc1	-4%
83	FC(F)(F)c1cccc(N2CCN(c3nc4ccccc4n4cnnc34)CC2)c1	-14%
84	CCOC(=O)c1c(C)oc2ncnc(N3CCN(c4ccccc4)CC3)c12	27%
85	CCN1CCOC(=O)C1CC(=O)Nc1cc(C)ccc1OC (stereo not drawn)	-24%
86	CCOC(=O)c1[nH]c(C)c(CCC(=O)Nc2ccc(N(CC)CC)cc2C)c1C	7%
87	CCc1nn(CC(=O)NCCC(C)C)c(=O)c2cc3occc3n12	-3%
88	CCC(=O)N1CCc2cc(Br)cc(S(=O)(=O)CCC(=O)Nc3ccc(C)c(C)c3)c21	0%
89	COc1ccccc1N1CCN(c2ccc(=O)n(CC(=O)O)n2)CC1	-2%
90	COc1ccc(OC)c(CNC(=O)c2c3c(nc4ccccc24)C(=O)N(C2CCCCC2)C3)c1	7%

# Other records follow:
No.	SMILES	miR-21 FLuc
91	Cc1ccc(-c2nc3cc(Cl)ccc3o2)cc1NC(=O)c1cc2ccccc2o1	-45%
92	CCCCn1c(SCC(=O)NCc2ccc(C)cc2)nc2c(sc3ccccc32)c1=O	-8%
93	Cn1cc(S(=O)(=O)N2CCCCC2)cc1C(=O)Nc1cccc(C#N)c1	-5%
94	COc1ccc(NC(=O)c2cnn(-c3ccc(C)cc3)c2-n2cccc2)cc1Cl	-3%
95	COc1ccc(/C=C/c2noc(-c3ccccc3O)n2)cc1OC	-8%
96	O=C(Cn1cc(S(=O)(=O)N2CCN(c3ccccc3F)CC2)c2ccccc2c1=O)Nc1cccc(C(F)(F)F)c1	14%
97	O=C(NCCC1=CCCCC1)c1ccc2c(c1)ncn2-c1ccc(F)c(F)c1	-46%
98	Cc1ccc(NS(=O)(=O)c2ccc3nc(-c4ccccc4)[nH]c3c2)c(Cl)c1	25%
99	CC(=O)c1cccc(NC(=O)c2nc(-c3ccccc3)n(-c3cccc(Cl)c3)n2)c1	-5%
100	CCOc1ccccc1NC(=O)c1c(NC(=O)C(C)Oc2ccc(Cl)cc2)sc2c1CCCCC2 (stereo not drawn)	0%
101	CCOc1ccc(NS(=O)(=O)c2ccc3[nH]cc(C(=O)NCCc4ccccc4)c(=O)c3c2)cc1	-24%
102	O=C(CS(=O)(=O)c1cccc2nsnc12)Nc1ccccc1Cl	-9%
103	COc1ccc2c(c1)c1c(c(=O)n(-c3ccccc3)c(=O)n1CC(=O)NCc1ccc(C)cc1)n2C	2%
104	COc1cccc(CNC(=O)CSc2ccc(-c3sc(-c4ccccc4)nc3C)nn2)c1	12%
105	Cc1ccc(CCNC(=O)c2c(C)nn(-c3ccc(F)cc3)c2-n2cccc2)cc1	27%

# Sorted by value in miR-21 FLuc (low to high): six of the compounds above.
No.	SMILES	miR-21 FLuc
38	Cn1c(=O)n(C)c2cc(NS(=O)(=O)c3ccc(Br)cc3)c(NCc3ccccc3)cc21	-29%
102	O=C(CS(=O)(=O)c1cccc2nsnc12)Nc1ccccc1Cl	-9%
87	CCc1nn(CC(=O)NCCC(C)C)c(=O)c2cc3occc3n12	-3%
72	Cc1cc(O)c(C(c2ccccc2Cl)N2CCN(c3ccccc3)CC2)c(=O)n1Cc1ccco1 (stereo not drawn)	-1%
46	COc1ccc(S(=O)(=O)c2cc3cc(OC)ccc3oc2=O)cc1	2%
63	COc1ccc(CCNC(=O)Cc2c(C)c3cc4c(C(C)(C)C)coc4c(C)c3oc2=O)cc1	6%

# Carrying on:
No.	SMILES	miR-21 FLuc
106	CCOc1cc(C2NC(=O)c3c(sc4c3CCN(C)C4)N2)ccc1OC(=O)c1ccc(Br)cc1 (stereo not drawn)	3%
107	COCCCNC(=O)c1c(NC(=O)c2cc(=O)c3ccccc3o2)sc2c1CCCC2	-25%
108	CCOc1ccc(S(=O)(=O)NCCc2csc3nc(-c4cccc(C)c4)nn23)cc1	9%
109	COc1ccc(NC(=O)CCc2nc3cccnc3n2Cc2cccs2)c(OC)c1	-1%
110	CCN(C(=O)CN(C)S(=O)(=O)c1ccc2c(c1)n(C)c(=O)c(=O)n2C)c1cccc(C)c1	6%
111	CCCCNc1nc2c(c(=O)n(Cc3ccc(Cl)c(Cl)c3)c(=O)n2C)n1C	?
112	Cc1cc(C)cc(NC(=O)Nc2ccccc2OCc2cc(=O)n3ccccc3n2)c1	-6%
113	CCOCCc1nn2c(=O)cc(COC(=O)COc3ccccc3Cl)nc2s1	3%
114	CCC(=O)Nc1cccc(-c2nc3cc(C)ccc3o2)c1	-42%

# These rows are one share of the data; the hit share may differ from the screen's.
